Vaccinia Venus – inhibitors of vaccinia virus (Venus reporter). Potency, µM (series often up to 36.5 µM), for inactives: at the top dose activity change, negative = inhibition, hits mostly inhibitors. Vaccinia virus Venus reporter expression, fluorescence. AID 720580. 330,000 tested, 0.46% active; active means well fitted inhibition curve with a large enough effect; inconclusive means small, poorly fitted or top-dose-only effect; inactive means no such curve, though single readings can be large or run the other way; tested in A549 cells; also: nearly all actives have a fitted effect of over 30% in size; inactives centre near -10
Vaccinia mCherry – vaccinia inhibition (mCherry reporter) | 310,000 tested, 0.63% active | Potency, µM (titrated, usually from 36.5 µM), inactives show at the highest dose activity change, negative = inhibition, usual class: inhibitors | Vaccinia virus mCherry reporter infection, fluorescence; about a quarter of the inactives have no number | AID 720579; active = well fitted inhibition curve with a large enough effect; inconclusive = small, poorly fitted or top-dose-only effect; inactive = no such curve, though single readings can be large or run the other way; tested in A549 cells; also: nearly all actives have a fitted effect of over 35% in size; inactives centre near -10
* marks the source's active call; other numbers are inactive results; i = inactive; ? = inconclusive; nt = not tested or not shown; & = joins results of further samples; [ ] = remark or other dose. % is scaled to controls: 0 for no effect and ±100 for the full control effect; potency is read from the fitted curve at half-maximal effect.

Each structure is followed by: Vaccinia Venus, Vaccinia mCherry
Cc1nc(-c2ccc(S(=O)(=O)N(C)Cc3ccccc3)cc2)co1
 : 11.1%, -3.9%
COc1ccc2cc(C3CC(c4ccco4)=NN3C(=O)CCC(=O)O)c(Cl)nc2c1 (stereo not given)
 : -11.9%, -13.5%
C[C@]12CCC3C(CC[C@H]4C[C@@H](O)CC[C@]34C)[C@H]1C=CC2=O (stereo not given in full)
 : ?, ?
CC(C)c1ccccc1NC(=S)NCc1ccccc1F
 : 0.8%, -11.2%
COc1ccc(Br)cc1CN(C)C(=O)c1cc(Cl)c2c(c1)OCCO2
 : -8.5%, i
Cc1ccc(C)c(N2CCN(C(=O)Cc3ccc(NC4=NC5CS(=O)(=O)CC5S4)cc3)CC2)c1 (stereo not given)
 : -4.7%, i
CC(C)[C@H](N)C(=O)N[C@H]1CCC2C3CC=C4C[C@@H](O)CC[C@]4(C)C3CC[C@@]21C (stereo not given in full)
 : 12.6µM*, ?
CCOC(=O)[C@]12CCC=C1N(Cc1cccc3ccccc13)C(=O)[C@H](CC(=O)NCCCN1CCCC1=O)C2
 : -5.5%, 9.0%
O=C(N[C@@H](Cc1c[nH]c2ccccc12)C(=O)NC1CC1)c1ccccc1Cl
 : 1.4%, -9.1%
COc1ccc(F)cc1CSc1nnnn1-c1ccc(O)cc1
 : -14.7%, ?
O=C(/C=C/c1ccc(Br)cc1)NC(=S)Nc1ccc(S(=O)(=O)Nc2nccs2)cc1
 : 5.8%, 0.5%
CC(=O)NC12CC3CC(C1)CC(C(=O)N1CCN(c4ncccn4)CC1)(C3)C2
 : -13.5%, -19.2%
CNC[C@H](O)c1cccc(O)c1
 : -15.4%, -13.8%
O=C(OCC(=O)N1CCc2ccccc2C1)c1cccs1
 : -11.1%, -3.3%
Cc1cc(C)c(NC(=O)CN2C(=O)CC(C)S(=O)(=O)c3ccccc32)c(C)c1 (stereo not given)
 : -8.4%, i
C=COCCNC(=S)Nc1ccccc1
 : -14.3%, -12.7%
Cc1cc(O)c(C(c2ccccc2)N2CCCCC2)c(=O)n1Cc1ccco1 (stereo not given)
 : -3.1%, -7.7%
CC(C)c1ccc(NC(=O)CCN2C(=O)[C@@H]3Cc4ccccc4CN3C2=O)cc1
 : -25.3%, -4.2%
COc1ccc(NC(=O)CN2C(=O)C(C)Oc3ccccc32)cc1OC (stereo not given)
 : -12.6%, -0.6%
CC1Cc2ccccc2N1C(=O)Cn1cnc2c1c(=O)n(C)c(=O)n2C (stereo not given)
 : -8.2%, -15.3%
CC(C)=CC1C(C(=O)O)C1(C)C (stereo not given)
 : 0.0%, i
O=C(CSc1nnc(-c2ccncc2)s1)Nc1ccccc1
 : -27.9%, -8.3%
COc1cccc(C(=O)C2CCCN(CC3=Cc4cc(OC)ccc4OC3)C2)c1 (stereo not given)
 : -22.2%, -12.2%
COc1ccc(Cc2nnc(NC(=O)c3ccc(OC(C)=O)cc3)s2)cc1OC
 : 3.7%, -17.7%
COCCCN1CCc2[nH]c(=S)[nH]c(=O)c2C1
 : -5.0%, -3.3%
CC(=O)N1CCC(N(C(=O)Nc2c(F)cccc2F)C(C)C)CC1
 : 1.2%&-4.6%, -4.2%
CCC(CC)C(=O)Nc1cccc(-c2nc3ccccc3o2)c1
 : -14.2%, -10.5%
COc1ccc(-n2c(O)c(C=Nc3ccccc3)c3ccccc3c2=O)cc1OC
 : -7.1%, i
Cc1cccc(C(C)C)c1NS(=O)(=O)c1cn(C)nc1C
 : -2.8%, i
O=C(OCc1nnc(-c2ccccc2)o1)c1cc(F)c(F)cc1Cl
 : 5.5%, -10.8%
Cc1ccc(CN(Cc2cc3cc(C)ccc3[nH]c2=O)Cc2nnnn2Cc2ccccc2)cc1
 : -15.6%, -4.7%
O=C(OCc1cn([C@H]2CN(C(=O)c3cccs3)[C@@H](c3ccc(Cl)cc3)C[C@@H]2O)nn1)c1ccccc1
 : ?, i
CC[C@]12c3[nH]c4cc(-c5ccco5)ccc4c3CCN1C(=O)[C@@H](CC(=O)NCCCn1ccnc1)C[C@@H]2C(=O)N1CCN(C(=O)C2CC2)CC1
 : -2.9%, -17.9%
CC(C)C(NC(=O)c1ccc(Cl)cc1Cl)C(=O)NCCc1ccccn1 (stereo not given)
 : -15.6%, -20.1%
CSc1cccc(N2CC(C(=O)NCCC3=CCCCC3)CC2=O)c1 (stereo not given)
 : -17.7%, -17.3%
O=C(COc1cc(Cl)c(Cl)cc1Cl)NCCc1ccccn1
 : -0.8%, -7.6%
C=CC[C@@H](CC(=O)N(CCO)Cc1ccccc1)C(=O)N[C@@H](C)COC(=O)[C@@H](CC=C)CC(=O)OC(C)(C)C
 : -18.8%, -18.1%
CS(=O)(=O)Nc1ccc(C(=O)NCCSCc2ccccc2)cc1
 : -17.7%, i
COc1ccc(C2CC(c3ccccc3F)=NN2c2ccc(S(N)(=O)=O)cc2)cc1 (stereo not given)
 : -22.1%, -8.8%
Brc1ccc(CN2CCN(c3ccccn3)CC2)s1
 : -9.1%, -10.0%
CCOC(=O)c1noc2nc(C)n(Cc3cccc(C#N)c3)c(=O)c12
 : -12.4%, -9.2%
CCN1C(=O)[C@H]2[C@@H](c3ccc(C)cc3)N3C(=O)N(c4ccccc4)C(=O)[C@@]3(CC)[C@H]2C1=O
 : -20.0%, ?
c1ccc(N2C3C4CC(C5CCCC54)C32)cc1 (stereo not given)
 : 0.1%, i
Cc1cc(NC(=O)CN2C(=O)c3ccccc3C2=O)no1
 : 1.8%, -3.9%
O=C(NCCc1ccccc1)c1ccc(Nc2nc3ccccc3n3nnnc23)cc1
 : -25.1%, -20.7%
CC(NC(=O)COC(=O)c1cc([N+](=O)[O-])ccc1N1CCOCC1)c1ccccc1 (stereo not given)
 : -4.4%, -7.0%
O=C(O)CC/C(=N\NC(=O)c1ccccc1Br)c1ccccc1
 : -7.2%, -13.2%
COc1ccc(CCN2C(=O)c3[nH]nc(-c4ccccc4O)c3C2c2ccc(O)c(OC)c2)cc1 (stereo not given)
 : -3.3%, -8.3%
CCCNC(=O)c1onc(CSc2ccc(F)cc2)c1C(=O)NCC1CC1
 : -11.6%, i
C=CCNC(=S)N(CC=C)C1CCS(=O)(=O)C1 (stereo not given)
 : -11.6%, -9.3%

Continued.
Each structure is followed by: Vaccinia Venus, Vaccinia mCherry
COc1ccc(C(=O)/C(C)=N/O)cc1OC
 : -10.0%, -3.1%
CCOC(=O)c1c(C)c(C(=O)NCc2ccc(Cl)cc2)c(C)n1C
 : -16.4%, -10.1%
CCNC(=S)N1CCN(c2cccc(C(F)(F)F)c2)CC1
 : -6.4%, -12.4%
CCOC(=O)/C=C/C(=O)Nc1ccccc1-c1ccccc1NC(=O)/C=C/C(=O)OCC
 : -14.4%, -8.4%
COc1ccc(-c2cn(CCC(=O)O)c(C)n2)cc1
 : -1.7%, -5.3%
O=C(COc1ccc(Cl)cc1)NCC(=O)N/N=C/c1cccs1
 : -23.3%, -15.6%
COc1ccc(S(=O)(=O)N(CC(=O)NC2CC2)C2CCCCC2)cc1Cl
 : -4.9%, i
CCCc1cc(=O)[nH]c(SCC(=O)N2CCN(c3ccccc3OC)CC2)n1
 : -5.7%, -12.0%
CCOC(=O)c1sc(NC(=O)CNC(=O)Cn2cnc3sc(C)c(C)c3c2=O)nc1C
 : -11.2%, -13.4%
CC(C)c1ccc(NC(=O)c2cc(S(=O)(=O)N3CCc4ccccc4C3)ccc2F)cc1
 : ?, -29.6%

In the list so far, these have an aryl thioether with sulfur outside any ring:
Each structure is followed by: Vaccinia Venus, Vaccinia mCherry
COc1ccc(F)cc1CSc1nnnn1-c1ccc(O)cc1
 : -14.7%, ?
O=C(CSc1nnc(-c2ccncc2)s1)Nc1ccccc1
 : -27.9%, -8.3%
CSc1cccc(N2CC(C(=O)NCCC3=CCCCC3)CC2=O)c1 (stereo not given)
 : -17.7%, -17.3%
CCCNC(=O)c1onc(CSc2ccc(F)cc2)c1C(=O)NCC1CC1
 : -11.6%, i
CCCc1cc(=O)[nH]c(SCC(=O)N2CCN(c3ccccc3OC)CC2)n1
 : -5.7%, -12.0%

Remaining list, next part:
Each structure is followed by: Vaccinia Venus, Vaccinia mCherry
COc1ccc(-c2noc3c2-c2nc(-c4ccc(C)cc4)sc2CC3)cc1
 : -11.0%, -19.7%
CCN(CC)C(=O)[C@H]1C[C@H](CC(=O)NCCc2ccccn2)C(=O)N2CCc3c([nH]c4cc(CCC(=O)N(C)C)ccc34)[C@]12C
 : 10.6%, -2.4%
O=C(Cc1cccs1)Nc1ccc(-c2nc3ccccc3[nH]2)cc1
 : -24.1%, -27.1%
CC(=O)c1ccc(N2C(=O)[C@@H]3C(CCC(N)=O)NC4(C(=O)Nc5c4ccc(Cl)c5C)[C@@H]3C2=O)cc1 (stereo not given in full)
 : -9.6%, -14.6%
Cc1cccc(C(=O)NNS(=O)(=O)c2ccccc2[N+](=O)[O-])c1
 : -19.7%, nt
CCOC(=O)Cc1ccc(NC(=O)Nc2cccc(OCc3cc(=O)n4cc(C)ccc4n3)c2)cc1
 : -9.0%, -16.3%
Cc1cc(OCc2nnc(SCC(=O)O)n2-c2ccccc2)ccc1Cl
 : -7.8%, i
O=C(NCc1ccco1)c1ccc2c(c1)N(Cc1cccc(Cl)c1)C(=O)c1ccccc1S2(=O)=O
 : -8.7%, -10.0%
Cc1ccc(C(=O)c2c3ccccc3[n+]([O-])n2CCO)cc1
 : -9.7%, i
CC(=C/c1ccco1)/C=N/NC(=O)c1nnn(-c2nonc2N)c1CN(C)C
 : -7.6%, -7.1%
COc1ccc(NC(=O)c2nc(-c3ccc(C)cc3)n3c2CCCCC3)c(OC)c1
 : -18.8%, -13.7%
COc1ccc(S(=O)(=O)Nc2ccc3c(c2)N(C(C)=O)CCC3)cc1
 : -16.5%, -22.4%
CCn1cc(C(=O)NCc2ccc(C)cc2)c(=O)c2cc(S(=O)(=O)N3CCCCCC3)ccc21
 : -21.9%, ?
CN(C)c1ccc(/C=N/Nc2nc3ccccc3o2)cc1
 : -29.3%, ?
S=C(Nc1ccc2nc(-c3ccccn3)c(-c3ccccn3)nc2c1)N1CCCCC1
 : 4.1%, -10.9%
O=C(CN1CCc2ccccc2C1)Nc1cc(S(=O)(=O)N2CCOCC2)ccc1N1CCOCC1
 : -20.4%, -16.3%
O=c1oc2cc(OCc3c(F)c(F)c(F)c(F)c3F)ccc2cc1-c1ccccn1
 : 3.0%, i
CC1(C)c2ccccc2-c2nc3ccccc3cc2C1O (stereo not given)
 : 7.9%, -26.7%
COC(=O)C1=C(O)/C(=C\c2cc(C)n(-c3ccc(F)cc3)c2C)N=C1C
 : -3.5%, 2.9%
CCSc1nnc(NC(=O)c2nc(S(=O)(=O)Cc3ccc(F)cc3)ncc2Cl)s1
 : -6.2%, -14.3%
C=CCSc1nnc(CCc2ccccc2)n1N
 : -6.0%, -13.5%
Cc1ccc(CN(Cc2cc3cccc(C)c3[nH]c2=O)C(=S)NCCCN(C)C)cc1
 : -22.0%, -15.6%
COc1cc(OC)cc(-c2sc3ccc(OC)cc3c2-c2ccc(O)cc2)c1
 : ?, ?
COc1cc(C(=O)NCCSc2ccc(Br)cc2)cc(OC)c1OC
 : -6.2%, -9.6%
Cc1ccc(S(=O)(=O)NC(=O)c2cc(C)n(CC(c3ccccc3)N(C)C)c2C)cc1 (stereo not given)
 : -16.0%, -6.4%
O=C(CN1C(=O)C2CC=CCC2C1=O)Nc1ccc(S(=O)(=O)N2CCOCC2)cc1 (stereo not given)
 : -2.7%, i
CCOc1ccc(OCCSc2nc(-c3ccccc3)cc(=O)[nH]2)cc1
 : -3.9%, 2.8%
COC(=O)c1ccc(NC(=O)NCCCl)cc1
 : -17.5%, i
CCC[C@H]1CN(c2ccc(Br)cc2)C(=O)[C@@H]1CC(=O)Nc1ccccc1
 : -16.1%, 12.9%
COc1ccc(C2(O)C(=O)Nc3ccc(C)cc32)cc1OC (stereo not given)
 : -0.3%, -12.8%
CC12CCC(=O)C=C1CCC1C2C(O)CC2(C)C(c3csc(N)n3)CCC12 (stereo not given)
 : -8.4%, -10.5%
Cn1cccc1C(=O)OCc1ccc(C(C)(C)C)cc1
 : -9.3%, -13.6%
O=C1c2ccccc2C2(c3cc(C(F)(F)F)cc(C(F)(F)F)c3)NCCN12 (stereo not given)
 : -8.7%, -21.4%
Cn1c2c(c(=O)n(C)c1=O)[C@@H]1c3c(ccc4ccccc34)OC[C@@H]1CO2
 : -6.3%, i
COc1ccc(CNC(N)=O)cc1
 : 5.1%, -2.2%
Cc1ccc(-n2ncc(C(=O)NCCN3CCCC3)c2C2CCN(C(=O)OC(C)(C)C)CC2)cc1
 : -21.0%, i
CN1CCN(C(=O)C[C@H]2CC[C@H]3[C@@H](COC[C@@H](O)CN3C(=O)C3CCCC3)O2)CC1
 : 3.5%, -8.6%
Cc1cccc(-n2ncc3c2CCCC3NC(=O)CN2CCCC2=O)c1C (stereo not given)
 : -15.7%, -12.3%
CC(C)(C)c1ccc(/C=N/N2CCN(c3ccccn3)CC2)cc1
 : -0.8%, -14.2%
C/C(CC(=O)Nc1cccc(C(F)(F)F)c1)=N/NC(=O)C(=O)NCCO
 : -9.6%, -1.4%
CC(C)Sc1nc(N2CCOCC2)c2c(c1C#N)CC(C)(C)N(C)C2
 : -7.5%, i
CCn1c(SCC(=O)Nc2ccc(C)cc2)nc(O)cc1=O
 : 4.0%[7.34 µM], -12.7%[7.34 µM]
O=C(CNC(=O)c1ccc(Cl)cc1Cl)OCCCn1c(=O)[nH]c2ccccc21
 : -12.0%, -19.6%

Screening results as filed in PubChem.
